NS1 function inh: influenza NS1 inhibition; 270,000 tested, 0.4% active; S. cerevisiae slowed by influenza A NS1, growth recovery by OD600; Potency, µM (top dose mostly 46.1 µM), inactives show top-dose activity, positive = more growth; active means well fitted rising curve with a large enough effect; inconclusive means small, poorly fitted or top-dose-only effect; inactive means no such curve, though single readings can be large or run the other way; also: nearly all actives have a fitted effect of over 50% in size
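Compounds were scored for reversing the slow growth caused by influenza A NS1 in S. cerevisiae, measured by optical density at 600 nm. Assay medium contained 2% galactose at pH 6.0; NS1-free yeast of the same strain were the positive control.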
Marburg entry inh: blocks Marburg virus binding to or entry into cells; Potency, µM (titrated, usually from 37.8 µM), without a hit: at the highest dose activity change, negative = inhibition, most hits filed as inhibitors; AID 540276; Marburg virus pseudotyped entry inhibition, cell reporter; control for the full effect not named in the record; about a third of the inactives were read at about 46 µM; 300,000 tested, 1.8% active; active = well fitted inhibition curve with a large enough effect; inconclusive = small, poorly fitted or top-dose-only effect, or effect the other way; inactive = flat fitted curve, though single readings scatter; tested in HEK293 cells; about a fifth of its hits are not listed in these tables; also: % is scaled to controls: 0 for no effect and ±100 for the full control effect; luciferase read-out
Lassa entry inh: blocks Lassa virus binding to or entry into cells; 300,000 tested, 1.2% active; Lassa virus pseudotype entry inhibition, cell reporter; control for the full effect not named in the record; Potency, µM (top dose mostly 37.9 µM), inactives show top-dose activity change, negative = inhibition, actives largely listed as inhibitors; active means well fitted inhibition curve with a large enough effect; inconclusive means small, poorly fitted or top-dose-only effect, or effect the other way; inactive means flat fitted curve, though single readings scatter; tested in HEK293 cells; also: % is scaled to controls: 0 for no effect and ±100 for the full control effect; nearly all actives have a fitted effect of over 50% in size; luciferase read-out
Cruzain Triton: cruzain (T. cruzi) inhibition with detergent; P25779; purified cruzain, Z-FR-AMC fluorescence, 0.01% Triton; Potency, µM, for the others: max response, negative = inhibition, most hits filed as inhibitors; 200,000 tested, 0.43% active;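 also: plate controls were neutral wells for no effect and buffer without enzyme for full effect; nearly all actives have a fitted effect of over 40% in size; top concentration of the series not given in the record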
Target sequence (P25779 123-467 limits assumed): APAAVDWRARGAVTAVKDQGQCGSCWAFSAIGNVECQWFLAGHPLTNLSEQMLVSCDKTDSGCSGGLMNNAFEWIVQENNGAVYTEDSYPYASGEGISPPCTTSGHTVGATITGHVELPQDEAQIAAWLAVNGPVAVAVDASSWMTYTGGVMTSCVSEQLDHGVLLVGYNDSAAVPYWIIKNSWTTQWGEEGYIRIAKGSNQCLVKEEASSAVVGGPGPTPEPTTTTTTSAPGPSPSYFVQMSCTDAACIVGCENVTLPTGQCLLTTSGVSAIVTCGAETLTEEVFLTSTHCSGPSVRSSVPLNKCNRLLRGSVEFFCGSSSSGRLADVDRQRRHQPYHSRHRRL
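15 min RT preincubation of 1.5 nM cruzain with compound, then 2 uM Z-FR-AMC added; kinetic AMC fluorescence, 60 s delta. Triton X-100 0.01%, pH 5.5.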
SARS PLP yeast: inhibitors of SARS-CoV papain-like protease in yeast; S. cerevisiae expressing SARS-CoV PLpro, growth rescue; control for the full effect not named in the record; Potency, µM (titrated, usually from 32.9 µM), without a hit: at the top dose activity, positive = growth rescue; 330,000 tested, 0.19% active; AID 485353; active means well fitted rising curve with a large enough effect; inconclusive means small, poorly fitted or top-dose-only effect; inactive means no such curve, though single readings can be large or run the other way; also: 0% is about no effect; nearly all actives have a fitted effect of over 55% in size; growth read by luminescence after 48 h
RE007 growth inh: less growth of the S. pombe RE007 Vpr strain; S. pombe RE007 Vpr strain, BacTiter-Glo ATP luminescence, 24 h; control for the full effect not named in the record; Potency, µM (series often up to 92.2 µM), without a hit: at the top dose activity change, negative = less growth; AID 651644; 360,000 tested, 0.21% active; active = well fitted falling curve with a large enough effect; inconclusive = small, poorly fitted or top-dose-only effect; inactive = no such curve, though single readings can be large or run the other way;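 also: % is scaled to controls: 0 for no effect and ±100 for the full control effect; nearly all actives have a fitted effect of over 50% in size; the assay follows cell death caused by Vpr and the record does not say whether a fall means rescue or toxicity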
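Fission yeast RE007 carrying one integrated HIV-1 vpr copy, seeded at OD 0.01 in PMG+AL medium with 23 nL pinned compound. Grown 24 h at 30 degrees; viability read by BacTiter-Glo luminescence after 5 min.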
Cruzain inh noDet: inhibitors of Trypanosoma cruzi cruzain without detergent | P25779 | purified cruzain, Z-FR-AMC fluorescence, no detergent | Potency, µM, without a hit: max response, negative = inhibition, most hits filed as inhibitors | 200,000 tested, 2.3% active | AID 1476;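 also: plate controls were enzyme without inhibitor for no effect and buffer without enzyme for full effect; nearly all actives have a fitted effect of over 40% in size; top concentration of the series not given in the record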
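Purified cruzain at 1.5 nM, pre-incubated 15 min with compound at room temperature in 100 mM sodium acetate pH 5.5, 5 mM DTT, 0.00005% Triton X-100. Reaction started with 2 uM Z-FR-AMC; AMC fluorescence increase over 60 s gives rate.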
StopGo reporter: lowers the luciferase signal of an FMDV 2A StopGo reporter. human cells with a luciferase reporter of 2A StopGo recoding; control for the full effect not named in the record. Potency, µM (series often up to 57.9 µM), without a hit: top-dose signal change, negative = less light. 410,000 tested, 1.2% active. AID 1159524; active = well fitted falling curve with a large enough effect; inconclusive = small, poorly fitted or top-dose-only effect; inactive = no such curve, though single readings can be large or run the other way; tested in HEK293T cells; also: % is scaled to controls: 0 for no effect and ±100 for the full control effect; nearly all actives have a fitted effect of over 45% in size; luciferase light after 4 h
An asterisk follows results filed as active; & = joins results of further samples; [ ] = another dose, or the depositor's remark. Unless noted, calls follow the shape of the dose curve; as a rule, active = well fitted curve in the direction sought with a large enough effect; inconclusive = small, poorly fitted or top-dose-only effect, or another doubt; inactive = no such curve, though single readings can be large; an effect the other way counts as inactive or inconclusive. Potency is read from the fitted curve at half-maximal effect.

Screening CC(C)(C)c1ccc(OCC(=O)O)cc1 returned NS1 function inh -30.0%&2.9%, Marburg entry inh inconclusive, Lassa entry inh 10.4%, Cruzain Triton 2.4%, SARS PLP yeast -2.4%&0.2%, RE007 growth inh 2.7%, Cruzain inh noDet -12.4% and StopGo reporter 17.7%.
`Cc1cc(C)c[n+](-c2nc([O-])sc2C=O)c1` gave NS1 function inh 3.0%, Marburg entry inh 0.2%[46.1 µM], Lassa entry inh 4.2%, Cruzain Triton -7.7%, SARS PLP yeast 2.7%, RE007 growth inh -16.8%, Cruzain inh noDet -7.9% and StopGo reporter -9.2%.
For CCOC(=O)c1cc(-c2ccccc2)nn1-c1ccccn1 the results were NS1 function inh 5.2%, Marburg entry inh inconclusive, Lassa entry inh 20.4%[14.3 µM], Cruzain Triton 7.7%, SARS PLP yeast -9.6%, RE007 growth inh 6.7%, Cruzain inh noDet -3.0% and StopGo reporter 2.7%.
For O=C(O)c1cc(-n2[nH]c(=O)c3ccccc3c2=O)ccc1Cl the results were NS1 function inh 15.4%, Marburg entry inh inconclusive, Lassa entry inh 10.0%[46.1 µM], SARS PLP yeast -2.2%, RE007 growth inh 10.9% and StopGo reporter 37.8%[activator].
Screening CCCc1nc2oc3c(NCCN4CCOCC4)ncnc3c2c2c1CCCC2 returned NS1 function inh -26.6%, Marburg entry inh 0.9%, Lassa entry inh 10.6%, Cruzain Triton -4.8%, SARS PLP yeast 1.3%, RE007 growth inh 12.4%, Cruzain inh noDet 4.8% and StopGo reporter -23.8%.
Screening CCn1c(SCC(=O)OC(C)C)nnc1-c1cccc(Cl)c1 returned NS1 function inh -3.1%, Marburg entry inh 0.1%, Lassa entry inh -2.5%, Cruzain Triton 2.2%, SARS PLP yeast 5.1%, RE007 growth inh -6.7% and Cruzain inh noDet 3.4%.
`c1ccc(OCCOCCSc2ncccn2)cc1` gave NS1 function inh -14.2%, Marburg entry inh 0.6%, Lassa entry inh -5.8%, Cruzain Triton 3.9%, SARS PLP yeast 4.3%, RE007 growth inh -2.7%, Cruzain inh noDet 5.0% and StopGo reporter 29.9%.
COc1ccc(NC(=O)CC2SC(=NCC3CCCO3)NC2=O)c([N+](=O)[O-])c1 (configuration not stated) was read as NS1 function inh 1.7%, Marburg entry inh 9.9%, Lassa entry inh 4.1%, SARS PLP yeast -2.0%, RE007 growth inh -4.5% and StopGo reporter -7.3%.
`O=C(CSc1c2c(nc3ccc(Cl)cc13)CCCC2)N1CCN(c2ccc(Cl)cc2)CC1` gave Marburg entry inh inconclusive, Lassa entry inh -15.1%[46.1 µM], Cruzain Triton -3.1%, Cruzain inh noDet -5.1% and StopGo reporter inconclusive.
`N#Cc1ccc(OCC(=O)NCCc2ccccn2)cc1` gave NS1 function inh 15.4%, Marburg entry inh 10.7%[46.1 µM], Lassa entry inh inconclusive, Cruzain Triton 3.3%, SARS PLP yeast 5.8%, RE007 growth inh -0.3%, Cruzain inh noDet -4.5% and StopGo reporter -22.0%.
O=C(C1CCCN(Cc2ccccc2)C1)N1CCCCC1 (configuration not stated) was read as NS1 function inh 3.9%, Marburg entry inh -6.9%, Lassa entry inh -1.6%, Cruzain Triton 3.7%, SARS PLP yeast 9.0%, RE007 growth inh 7.1%, Cruzain inh noDet 3.0% and StopGo reporter -2.5%.
For CC(C)c1ccc(C2N3CC4([N+](=O)[O-])CN2CC([N+](=O)[O-])(C3)C4(C)C)cc1 (configuration not stated) the results were NS1 function inh 8.3%, Marburg entry inh -3.1%, Lassa entry inh 18.9%, Cruzain Triton 2.4%, SARS PLP yeast -27.2%, RE007 growth inh 11.8%, Cruzain inh noDet 10µM* and StopGo reporter -13.1%.
`COc1ccc(C2(CNC(=O)CCC(=O)O)CCCC2)cc1OC` gave NS1 function inh 4.5%, Marburg entry inh 24.0%, Lassa entry inh 8.3%, Cruzain Triton 9.4%, SARS PLP yeast 0.0%, RE007 growth inh -17.0%, Cruzain inh noDet -0.9% and StopGo reporter 6.8%.
Screening CC(C)(C)c1cccc(Oc2nn[nH]n2)c1 returned NS1 function inh -11.4%, Marburg entry inh inconclusive, Lassa entry inh 8.3%, Cruzain Triton -0.8%, SARS PLP yeast -3.7%, RE007 growth inh 3.6%, Cruzain inh noDet -2.0% and StopGo reporter 24.8%.
`CC(C)CNC(=O)c1ccc(Cl)c(N)c1` gave NS1 function inh -3.1%, Marburg entry inh 15.9%, Lassa entry inh -19.7%, Cruzain Triton 0.7%, SARS PLP yeast 6.1% and Cruzain inh noDet -0.1%.
Screening O=Cc1ccccc1-c1cn(CCCOCc2ccccc2)nn1 returned NS1 function inh -32.7%, SARS PLP yeast 3.1%, RE007 growth inh 6.0% and StopGo reporter -2.0%.
Screening CCSc1nc2c([nH]c3ccccc32)c(=O)n1-c1ccc(F)cc1 returned Lassa entry inh 18.7%[46.1 µM], Cruzain Triton -2.3%, Cruzain inh noDet 2.7% and StopGo reporter -9.0%.
`O=C(NC1CC2CCCC(C1)N2)c1ccccc1` (configuration not stated) gave NS1 function inh -8.1%, Marburg entry inh 2.8%[46.1 µM], Lassa entry inh 15.3%[46.1 µM], SARS PLP yeast 0.0%, RE007 growth inh 18.1% and StopGo reporter 12.5%.
Screening CC(C)(C)c1cc(C(=O)N/N=C/c2ccco2)n[nH]1 returned NS1 function inh 5.0%, Marburg entry inh 5.3%, Lassa entry inh 24.4%, Cruzain Triton -3.7%, SARS PLP yeast 11.3%, RE007 growth inh -11.0%, Cruzain inh noDet -4.4% and StopGo reporter 75.3%[activator].
NNC(=O)c1nc(-c2ccccc2)n2c1CCCCC2 was read as NS1 function inh 18.9%, Marburg entry inh 16.4%, Lassa entry inh -27.6%, Cruzain Triton -1.2%, SARS PLP yeast -7.0%, RE007 growth inh -2.7%, Cruzain inh noDet 3.2% and StopGo reporter -19.6%.
CC1(C)CC(=O)C2=C(C1)N(CC1CCCO1)C(=O)C2(O)C(F)(F)F (configuration not stated) was read as NS1 function inh 5.9%, Marburg entry inh 20.9%, Lassa entry inh 15.7%, Cruzain Triton 1.9%, SARS PLP yeast 1.3%, RE007 growth inh 10.1%, Cruzain inh noDet -2.7% and StopGo reporter -1.3%.
COc1ccc(N(Cc2cccs2)C(=O)c2ccc(OCC(C)C)cc2)cc1 was read as Marburg entry inh -21.8%[46.1 µM], Lassa entry inh -33.1%[46.1 µM], Cruzain Triton -10.3%, Cruzain inh noDet inconclusive and StopGo reporter 8.0%.
Cc1ccccc1NC(=O)Cn1nnc(S(=O)(=O)c2ccc(C(C)(C)C)cc2)c1N was read as NS1 function inh -7.4%, Marburg entry inh -45.7%, Lassa entry inh -24.1%, Cruzain Triton -11.3%, SARS PLP yeast -3.9%, RE007 growth inh 9.1%, Cruzain inh noDet 7.94µM* and StopGo reporter 0.2%.
For COc1ccc(OCC(=O)N2CCN(c3cccc(C(F)(F)F)c3)CC2)cc1 the results were NS1 function inh -1.6%, Marburg entry inh 17.0%, Lassa entry inh inconclusive, Cruzain Triton -7.6%, SARS PLP yeast -4.9%, RE007 growth inh -15.9%, Cruzain inh noDet inconclusive and StopGo reporter -21.7%.
For Cc1ccc(-c2cc(C(F)F)n3ncc(C(=O)Nc4ccc(S(=O)(=O)Nc5ccccc5C)cc4)c3n2)cc1 the results were NS1 function inh 4.6%, Marburg entry inh -14.3%[46.1 µM], Lassa entry inh 1.4%, Cruzain Triton 3.3%, SARS PLP yeast 0.4%, RE007 growth inh -10.3%, Cruzain inh noDet inconclusive and StopGo reporter 20.2%.
For COc1ccc2c(COC(=O)c3ccc(C)c(S(=O)(=O)N4CCOCC4)c3)cc(=O)oc2c1 the results were Marburg entry inh -39.6%, Lassa entry inh 5.4%, RE007 growth inh 20.8% and StopGo reporter -8.7%.
CCOC(=O)N1CCN(c2c(NCc3ccc(N(C)C)cc3)c(=O)c2=O)CC1 was read as NS1 function inh 2.9%, Cruzain Triton 5.6%, SARS PLP yeast 5.3%, RE007 growth inh 2.2%, Cruzain inh noDet 19.1% and StopGo reporter -20.6%.
Screening Cc1cc(C)n(-c2ccc(C(=O)N3CCC(CO)(Cc4ccccc4)CC3)cc2)n1 returned NS1 function inh -4.4%, SARS PLP yeast -0.5%, RE007 growth inh 2.1% and StopGo reporter -24.5%.
`O=C(CSc1nc(-c2ccco2)nc2cc(=O)[nH]n12)Nc1ccccc1Cl` gave Lassa entry inh -0.1%[46.1 µM], Cruzain Triton -5.2%, Cruzain inh noDet inconclusive and StopGo reporter -10.2%.
Screening COc1ccc(S(=O)(=O)NC(CC(=O)NCCc2ccc(OC)c(OC)c2)C(C)C)cc1 (configuration not stated) returned NS1 function inh -5.2%, Marburg entry inh 7.6%[46.1 µM], Lassa entry inh -29.0%, SARS PLP yeast 0.4%, RE007 growth inh -10.3% and StopGo reporter 16.6%.
Screening COCCNC(=O)C(=O)Nc1ccc2c(c1)N(S(=O)(=O)c1cccs1)CCC2 returned Marburg entry inh inconclusive, Lassa entry inh 1.78µM*, SARS PLP yeast 2.6%, RE007 growth inh -6.3% and StopGo reporter 0.4%.
For O=C(NNC(=O)c1ccccc1-n1cccc1)c1ccc(Cl)c(Cl)c1 the results were NS1 function inh 4.7%, Marburg entry inh -15.5%, Lassa entry inh -18.7%, Cruzain Triton -1.1%, SARS PLP yeast 9.9%, RE007 growth inh 18.1%, Cruzain inh noDet -4.0% and StopGo reporter 0.1%.
Cc1cccc(N(CC(=O)Nc2cccc(Cl)c2C)S(C)(=O)=O)c1C was read as Marburg entry inh -12.1%[46.1 µM], Lassa entry inh 0.4%[46.1 µM], Cruzain Triton -6.4%, Cruzain inh noDet 1.5% and StopGo reporter 25.3%.
`NC(=O)CSc1nnc(COc2ccccc2)n1CCc1ccccc1` gave NS1 function inh -10.0%, Marburg entry inh -2.7%, Lassa entry inh inconclusive, Cruzain Triton 2.9%, SARS PLP yeast 10.3%, RE007 growth inh 0.9%, Cruzain inh noDet 4.3% and StopGo reporter 20.3%.

From PubChem BioAssay
